Compound activity (PubChem)
HPGD inh – HPGD (human) dehydrogenase inhibition | P15428 | purified HPGD, NADH fluorescence kinetic, PGE2 substrate | Potency, µM, without a hit: at the top dose activity change, negative = inhibition, usual class: inhibitors | hit rate 4.3% among 150,000 | AID 894; active = well fitted inhibition curve with a large enough effect (not every such curve was filed as active); inconclusive = small, poorly fitted or top-dose-only effect, or another doubt; inactive = no such curve, though single readings can be large or run the other way;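 note: top concentration of the series not given in the record; plate controls included wells without enzyme; inactives centre near -10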
Target sequence (P15428 whole entry, looked up): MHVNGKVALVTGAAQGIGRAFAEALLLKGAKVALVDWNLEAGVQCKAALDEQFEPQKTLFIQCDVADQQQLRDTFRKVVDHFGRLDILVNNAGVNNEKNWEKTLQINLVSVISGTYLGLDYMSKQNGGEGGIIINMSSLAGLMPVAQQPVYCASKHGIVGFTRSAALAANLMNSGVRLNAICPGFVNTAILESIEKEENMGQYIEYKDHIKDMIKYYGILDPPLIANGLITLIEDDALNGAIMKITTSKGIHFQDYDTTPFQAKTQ
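20 nM HPGD preincubated 15 min at room temperature with compound in 50 mM Tris-HCl pH 8, 0.01% Tween 20. Started with 1 mM NAD+ and 30 uM prostaglandin E2; NADH fluorescence (360/450 nm) read 5 times over 30-s intervals, last minus first.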
The depositor's hits bear a star; ? = inconclusive. % is set by controls: 0 for no effect and ±100 for the full control effect; potency is the fitted concentration of half-maximal effect.

HPGD inh | structure
-20.4% | Cc1cccc(NC(=S)NC(NC(=O)c2ccco2)C(Cl)(Cl)Cl)c1 (configuration not stated)
-12.1% | Cc1cccc(/C=N/NC(=O)CNc2cccc3ccccc23)n1
-4.0% | COCCCN1C(=O)C(=O)/C(=C(/O)c2ccc(OC(C)C)c(C)c2)C1c1ccncc1 (configuration not stated)
-19.1% | COCCNC(=O)C1c2cc(OC)c(OC)cc2C(=O)N(C)C1c1cccnc1 (configuration not stated)
-7.3% | Cc1nccc2[nH]c(=O)c(C(=O)NC3CCCCC3C)cc12 (configuration not stated)
? | O=C1CC(c2cccc(Cl)c2)Cc2nc(N3CCN(c4ccccc4)CC3)ncc21 (configuration not stated)
? | O=C(c1cc([N+](=O)[O-])ccc1N1CCCCC1)N1CCCCC1
3.0% | O=C(c1cc(Cl)c(=O)n(Cc2ccc(Cl)cc2)c1)N1CCOCC1
-28.9% | CCOc1cc(C(=S)N2CCOCC2)ccc1OC(=O)/C=C/c1ccc(OC)c(OC)c1
-13.2% | CCn1c(SC)nnc1-c1c[nH]c2ccccc12
-2.8% | Cc1nc2cc(C(=O)OCC(=O)N(CC(C)C)C3CCS(=O)(=O)C3)ccc2n1-c1ccccc1 (configuration not stated)
4.2% | COCCN(CCOC)C(=O)CC(=O)N(CCOC)CCOC
-14.3% | COC(=O)c1ccc(S(=O)(=O)N2CCCCCC2)cc1
-15.4% | CC(c1ccccc1)C1C(C#N)=C(N)OC2=C1C(=O)CCC2 (configuration not stated)
-9.2% | O=C(NCCc1ccccc1)C(=O)c1c(-c2ccccc2)cc2ccccn12
-5.6% | CCSc1nc2ccccc2c(=O)n1OCC(=O)OC
1.6% | CCS(=O)(=O)N1Cc2ccccc2CC1C(=O)Nc1ccc(C)cc1 (configuration not stated)
? | COc1cc(C2C(C#N)=C(N)Oc3cc(C)oc(=O)c32)cc2c1OCO2 (configuration not stated)
? | O=C(COC(=O)c1ccccc1NCc1ccco1)Nc1ccc2c(c1)OCO2
25.1µM* | Clc1cccc(-c2nn3c(Cn4cnc5ccccc54)nnc3s2)c1
? | Cc1cccc(S(=O)(=O)c2c(N)n(/N=C/c3cccnc3)c3nc4ccccc4nc23)c1
-16.0% | COc1ccc(OC)c(C(=O)c2ccc(C(=O)c3cc(OC)ccc3OC)cc2)c1
-13.5% | CCCN(CCC)C(=O)CSc1nc2ccccc2c(=O)n1CC1COc2ccccc2O1 (configuration not stated)
-1.5% | COc1ccccc1N1CCN(C(=O)c2c(-c3ccccc3Cl)noc2C)CC1
? | Cc1ccc2[nH]c(=O)c(CNS(=O)(=O)c3ccccc3)c(-c3ccccc3)c2c1
-10.1% | O=C1CCN(C(=O)c2ccccc2)C2CCCCC12 (configuration not stated)
-23.4% | Clc1ccccc1Nc1c2c(nc3ncnn13)CCC2
? | CCOC(=O)N1CCN(c2nc(-c3cccc(OC)c3)cc(C(F)(F)F)n2)CC1
? | CCOc1ccc2[nH]c(=O)c(CN(Cc3cccs3)C(CC)c3nnnn3C(C)(C)CC)cc2c1 (configuration not stated)
-17.9% | CCOC(=O)c1cnc2cc(-c3ccc(C(C)(C)C)cc3)nn2c1N
-7.8% | Cc1ccc(CCNC(=O)C2CCN(S(=O)(=O)c3ccc4c(c3)CCC(=O)N4)CC2)cc1
-23.7% | Nc1cccc(-c2nc3ccccc3s2)c1
-4.9% | N[C@@H](Cc1c[nH]c2ccc([N+](=O)[O-])cc12)C(=O)O
-11.0% | Cc1nc(NC(=S)NC(=O)c2ccccc2)sc1C(=O)N(C)C
-3.6% | CN1C(=O)c2ccccc2C(C(=O)NCC2CCCO2)C1c1c[nH]c2ccccc12 (configuration not stated)
-26.3% | COc1cc(C(=O)OCc2cc3ccccc3[nH]c2=O)cc(OC)c1OC
-7.2% | CN1C(=S)SC(/[N+]([O-])=C\c2ccco2)C1(C)C (configuration not stated)
-17.8% | CCc1cccc(Nc2cc(C)nc3nc(C)nn23)c1
-11.4% | c1ccc(Cn2ncc3ccccc32)cc1
-13.4% | CN(C)CCCN(C(=O)c1sc2ccccc2c1Cl)c1nc2c(F)cccc2s1
-4.1% | COc1ccc(OCC(=O)N2CCN(c3cccc(Cl)c3)CC2)cc1
-15.2% | CCCCC(CC)CNC(=O)c1cc2ccccc2c(=O)o1 (configuration not stated)
-13.4% | Cc1cc(-c2ccccc2)nc(N(C)NC(=O)c2ccc(Cl)cc2)c1S(C)(=O)=O
-13.9% | O=C(Cn1c(=O)n2ncnc2c2c3c(sc21)CCCC3)c1ccccc1
-12.1% | CCC(CC)C(=O)Nc1cccc(C(=O)Nc2nccs2)c1
-15.4% | CCN(CC(=O)Nc1c(C(=O)OC)[nH]c2ccccc12)c1ccc2c(c1)OCO2
-14.6% | COC(=O)/C=C/C(=O)N1CCN(c2ccccc2)CC1
-27.9% | COc1ccc(-c2cc(C(=O)O)c(C)o2)cc1OC
-19.2% | Cc1ccn2c(Nc3ccccc3C)c(-c3ccncc3)nc2c1
-9.7% | Cc1ccsc1/C=N/N=C1\C(=O)Nc2ccccc21
-14.2% | CN(C)c1ccc(NS(=O)(=O)c2cccc(Cl)c2)cc1
-11.7% | O=C(COC(=O)c1cccc(C(=O)OCC(=O)c2ccc(Br)cc2)n1)c1ccc(Br)cc1
? | COc1ccccc1-c1c(C#N)c(N)nc2c1CCc1ccccc1-2
15.8µM* | COc1ccc(COc2ccccc2C(=O)NCc2ccccc2)cc1F
1.2% | O=C(Nc1ccc(Cc2ccncc2)cc1)C1CCC(N2C(=O)C3C4C=CC(C4)C3C2=O)CC1 (configuration not stated)
-17.1% | Cc1cc2c(cc1C)NC(c1ccccn1)C1=C(CC(C)(C)CC1=O)N2 (configuration not stated)
-5.6% | Cc1ccc(S(=O)(=O)c2ccc(Cl)cc2)cc1S(=O)(=O)NC(C(=O)O)C(C)C (configuration not stated)
-4.3% | CCN1C(=O)N[C@@H](c2ccccc2)[C@H](C(=O)OC)[C@H]1C
-13.3% | c1ccc2c(c1)nc(N1CCOCC1)c1nncn12
-22.5% | CCOC(=O)c1c(NC(=O)CSc2nnnn2-c2ccc3c(c2)OCCO3)sc(C)c1C

Some of the entries above in a different format.
Molecule,HPGD inh
Cc1cc(-c2ccccc2)nc(N(C)NC(=O)c2ccc(Cl)cc2)c1S(C)(=O)=O,-13.4%
COc1ccccc1-c1c(C#N)c(N)nc2c1CCc1ccccc1-2,?
O=C(Cn1c(=O)n2ncnc2c2c3c(sc21)CCCC3)c1ccccc1,-13.9%
CCc1cccc(Nc2cc(C)nc3nc(C)nn23)c1,-17.8%

Other structures follow:
HPGD inh | structure
-23.8% | CCN(CC)S(=O)(=O)c1ccc2oc(C(=O)NCC3COc4ccccc4O3)c(C)c2c1 (configuration not stated)
-9.6% | O=C(NN1CCCCC1)c1ccccc1
15.8µM* | O=C(c1noc2c1CCc1ccccc1-2)N1CCc2ccccc2C1
-7.3% | Cc1ccc(N=C(NOC(=O)c2ccccc2)c2nonc2N)c(C)c1
-4.6% | Cc1ccc(SC(C)C(=O)Nc2ccccc2C(=O)N2CCOCC2)cc1 (configuration not stated)
-3.1% | COC(=O)C1CCN(c2cc(=O)n(C3CCCCC3)c(=O)[nH]2)CC1
-4.2% | COc1ccc(S(=O)(=O)Nc2ccc(S(=O)(=O)N3CCOCC3)cc2)cc1
-2.6% | CC1=C(C)C(=O)N(c2ccccn2)C1=O
? | COc1ccc(-n2c(=O)[nH]cc(C(=O)Nc3ccc4c(c3)OCCO4)c2=O)cc1
-1.6% | CCc1nc2ccccc2[nH]1
-3.3% | Cc1cc(C)nc(NS(=O)(=O)c2ccc(NC(=O)CCN3C(=O)c4ccccc4C3=O)cc2)n1
-5.7% | Cc1ccc(OCC(=O)NNC(=O)CCc2ccccc2)cc1
-9.6% | Cc1cc(-c2nnc(-c3cc4ccccc4oc3=O)o2)c(C)n1-c1ccccc1
-2.3% | CC(C)=N/N=C(\c1cccc([N+](=O)[O-])c1)C12CN3CN(CN(C3)C1)C2
? | CN1C(=O)/C(=C2\SC(N)=NC2=O)c2ccccc21
22.4µM* | Cc1cc(=O)[nH]c(SCC(=O)Nc2ccc(C(=O)O)cc2)n1
-5.1% | COc1cccc(/C=N/Nc2nn3cnnc3c3ccccc23)c1O
-28.7% | O=C(Cc1cscn1)c1ccc(O)cc1O
-6.5% | CCC(C(=O)NC1CCCCC1)n1c(SCc2cccc(C)c2)nc2ccncc21 (configuration not stated)
-20.4% | COc1ccc(-c2csc(NC(=O)CC(C)C)n2)cc1
14.1µM* | Cn1c(=O)cc(SCC(=O)NCC2CCCO2)c2ccc(Cl)cc21 (configuration not stated)
3.0% | O=C(COC(=O)CC12CC3CC(CC(Br)(C3)C1)C2)NC(=O)NCc1ccco1
-11.4% | CO/N=C/c1cc([N+](=O)[O-])ccc1Sc1ccc(C)cc1
-1.2% | Cc1nonc1NC(=O)c1ccc(Cl)c(S(=O)(=O)N2CCCCC2)c1
-8.8% | COC(=O)COc1ccccc1C(=O)Nc1ccc(OC)cc1
1.2% | O=C1C(c2ccc(F)cc2)N(C2CCCCC2)C(=O)CN1C1CCCC1 (configuration not stated)
-6.4% | CC(C)C[C@H](NC(=O)NCc1ccc(Cl)cc1)C(=O)O
-10.0% | CC1Cc2ccccc2N1C(=O)COc1cccc(-n2cnnn2)c1 (configuration not stated)
-11.7% | CCCN(CCC)S(=O)(=O)c1cc(Br)cc2c1N(C(=O)CC)CC2
-4.4% | CCc1ccccc1NC(=O)CN(C)C(=O)CSc1nn(-c2ccc(F)cc2)c(=S)s1

Looked up one by one from the entries so far:
HPGD inh | structure
-8.8% | COC(=O)COc1ccccc1C(=O)Nc1ccc(OC)cc1
-5.1% | COc1cccc(/C=N/Nc2nn3cnnc3c3ccccc23)c1O
-23.8% | CCN(CC)S(=O)(=O)c1ccc2oc(C(=O)NCC3COc4ccccc4O3)c(C)c2c1 (configuration not stated)
-1.2% | Cc1nonc1NC(=O)c1ccc(Cl)c(S(=O)(=O)N2CCCCC2)c1
1.2% | O=C1C(c2ccc(F)cc2)N(C2CCCCC2)C(=O)CN1C1CCCC1 (configuration not stated)

Back to the main list, repeating the four entries before the break.
HPGD inh | structure
-6.4% | CC(C)C[C@H](NC(=O)NCc1ccc(Cl)cc1)C(=O)O
-10.0% | CC1Cc2ccccc2N1C(=O)COc1cccc(-n2cnnn2)c1 (configuration not stated)
-11.7% | CCCN(CCC)S(=O)(=O)c1cc(Br)cc2c1N(C(=O)CC)CC2
-4.4% | CCc1ccccc1NC(=O)CN(C)C(=O)CSc1nn(-c2ccc(F)cc2)c(=S)s1
-14.3% | O=C(c1ccc(S(=O)(=O)c2ccc(F)cc2)c([N+](=O)[O-])c1)N1CCCCCC1
-2.3% | CCC(CC)NC(=O)c1ccc(Cl)cc1
0.2% | CCNC(=S)Nc1ccc(Cl)cc1
22.4µM* | CCOC(=O)/C(=C\c1ccc(Cl)cc1)c1nc2sc(C)c(C)c2c(=O)[nH]1
-15.4% | Cc1ccc(C(=O)N/N=C(\CC(C)C)c2ccccc2)cc1
-9.8% | COc1cccc(C2CC(c3ccc(C)cc3)Nc3nc(N)nn32)c1 (configuration not stated)
-8.2% | CC(C)N(C)C
-5.8% | O=S(=O)(NCC(c1cccnc1)N1CCN(Cc2ccccc2)CC1)c1ccccc1 (configuration not stated)
-14.7% | C(=N\c1c(-c2ccccc2)nc2n1CCS2)/c1ccccc1
-16.2% | CCN(CC)S(=O)(=O)c1ccc(NS(=O)(=O)CC23CCC(CC2=O)C3(C)C)cc1 (configuration not stated)
-20.2% | Cc1sc2nc(COC(=O)CNC(=O)c3ccc(C(C)(C)C)cc3)[nH]c(=O)c2c1C
-18.1% | O=C(Nc1cccc(C(F)(F)F)c1)c1cc(-c2cccs2)on1
-7.1% | O=C(Nc1ccccc1C(F)(F)F)c1cccnc1
-2.4% | CC(NC(=O)c1ccccc1NC(=O)CSc1nnnn1C)c1ccccc1 (configuration not stated)
-19.3% | CCOC(=O)c1sc(NC(=O)CSc2nc3ccccc3o2)c(C(=O)OCC)c1C
-10.7% | CCOC(=O)C(C)Sc1nnc(Cc2cc(=O)[nH]c(=O)[nH]2)n1-c1ccc(Cl)cc1 (configuration not stated)
-14.6% | CCOC(=O)c1[nH]c2ccc(Br)cc2c1NC(=O)CCN1CCN(C(=O)OCC)CC1
-4.8% | C/C(=C\CO)CCO
-9.1% | Cn1cnc2cc(NC(=O)c3ccco3)ccc21
-1.9% | CCN(CC)S(=O)(=O)c1ccc(C)c(NC(=O)COc2ccc(Cl)cc2Br)c1
-3.4% | O=c1cc(NS(=O)(=O)c2ccccc2)nc(SCc2ccccc2Cl)[nH]1
-8.7% | Cc1ccc(Cl)c2c1NC(=O)C2(O)CC(=O)c1ccc(Br)cc1 (configuration not stated)
3.8% | O=C(NC1CCCCC1)C1CN(S(=O)(=O)c2ccccc2)CCN1S(=O)(=O)c1ccccc1 (configuration not stated)
0.1% | c1ccc(C2(Cn3ccc4ccccc43)OCCO2)cc1
-12.6% | COC(=O)CSc1nc(C)c(C(C)=O)cc1C#N
-17.6% | Cc1cc(C)n2nc(CC(=O)NC3CCCC(C)C3C)nc2n1 (configuration not stated)
? | Clc1ccc(OCCN2CCN(c3ncnc4sccc34)CC2)cc1
-7.4% | Cc1ccccc1N(CC(N)=O)S(C)(=O)=O
-2.9% | Cc1cc(C(=O)NCCCN2CCOCC2)n(-c2ccccc2)n1
-15.3% | CCC(=O)Nc1cccc(-c2nc3ccccc3c(=O)o2)c1
-3.6% | CC(C)n1nnc2ccccc2c1=O
4.4% | C/C(Cl)=C\Cn1c(N2CCCCCC2)nc2c1c(=O)n(C)c(=O)n2C
-24.0% | CCOc1cc(CNc2ccc(N(C)C)cc2)cc(Br)c1OCC(=O)NC(C)(C)C

A portion of the library. The share of hits here may be higher or lower than overall.
